Polio RdRp inh – poliovirus RNA polymerase inhibition; % elongation, % (compound at 16.7 µg/mL); 150,000 tested, 0.66% active; poliovirus polymerase elongation, fluorescence polarization; hits give low values; AID 588519; P03300; in the data active means % elongation below about 90%; further: some results filed as inactive read as strong as hits
Target sequence (P03300 1749-2209 limits assumed): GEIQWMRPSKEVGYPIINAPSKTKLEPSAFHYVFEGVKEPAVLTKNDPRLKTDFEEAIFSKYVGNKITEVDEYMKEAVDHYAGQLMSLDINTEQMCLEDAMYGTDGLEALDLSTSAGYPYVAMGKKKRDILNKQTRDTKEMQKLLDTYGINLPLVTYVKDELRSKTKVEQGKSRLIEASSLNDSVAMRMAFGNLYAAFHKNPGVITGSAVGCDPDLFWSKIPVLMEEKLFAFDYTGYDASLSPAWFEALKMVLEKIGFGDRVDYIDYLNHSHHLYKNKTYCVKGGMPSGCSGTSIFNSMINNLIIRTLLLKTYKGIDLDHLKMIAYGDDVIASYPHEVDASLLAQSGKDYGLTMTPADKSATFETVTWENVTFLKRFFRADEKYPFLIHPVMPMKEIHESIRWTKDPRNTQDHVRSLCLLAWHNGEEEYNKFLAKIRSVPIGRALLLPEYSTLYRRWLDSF
Mtb MbtI inh – MbtI salicylate synthase inhibition; purified MbtI enzyme, fluorescence intensity read-out; 100,000 tested, 0.89% active; inhibition, %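 (about 17 µg/mL by stock and volumes)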; P9WFX0;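 active means above 50% in both replicates, above 80% if mildly self-fluorescent; inactive means the rest, strongly fluorescent compounds included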;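 further: 0% = mean of negative and 100% = mean of positive controls; one replicate is shown; some compounds called inactive have numbers as strong as hits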
MenB inh – inhibitors of Mycobacterium tuberculosis MenB enzyme; P9WNP5; MenB enzyme assay, absorbance read-out; some hits fall short of the stated cut; inhibition, %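 (about 12 µg/mL by stock and volumes)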; 100,000 tested, 0.43% active;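 active means mean of two replicates above 30%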;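 further: 0% = no compound and 100% = wells with inactive enzyme; the first replicate is given; strong numbers were not always called active; inactives centre near -10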
Target sequence (P9WNP5 whole entry, looked up): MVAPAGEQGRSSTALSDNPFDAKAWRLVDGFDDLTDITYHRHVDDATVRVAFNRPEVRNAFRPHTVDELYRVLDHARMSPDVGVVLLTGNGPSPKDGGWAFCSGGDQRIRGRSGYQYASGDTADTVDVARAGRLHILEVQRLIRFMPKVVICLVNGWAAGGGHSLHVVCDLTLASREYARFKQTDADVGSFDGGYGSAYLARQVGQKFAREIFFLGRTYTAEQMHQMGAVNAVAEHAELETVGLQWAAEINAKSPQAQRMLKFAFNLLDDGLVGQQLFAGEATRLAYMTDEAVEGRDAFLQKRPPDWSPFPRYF
Polio RdRp inh intensity – second read-out of Polio RdRp inh, no call of its own (marks repeat the call); % elongation; measured here: total intensity read-out; formula for this scale not given here;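 total fluorescence in place of polarization; lower means less elongation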
Starred values were filed as active, the others as inactive; i = inactive; / = no result given; & = joins results of further samples. Rows were taken by chance; 1.8% or so of the library scored in one or more.

Below each SMILES – Polio RdRp inh, Polio RdRp inh intensity, Mtb MbtI inh, MenB inh
O=c1oc2ccccc2cc1-c1nc(-c2ccc(Cl)cc2)no1
→ 103, 102, 32, -22
Cc1ccc(S(=O)(=O)c2nnn(-c3cccc(Cl)c3)c2C)cc1
→ 105, 98, -3, -8
CCCC(=O)NC(=S)c1c(C)n(C)n(-c2ccccc2)c1=O
→ 103, 102, 7, -24
CC(=O)Nc1cc(C(=O)NC2CCC(C)CC2)ccc1S(=O)(=O)c1ccc(Cl)cc1 (configuration not stated)
→ 100, 104, -1, 0
CCNC(=O)C1CCN(c2nc3cccnc3s2)CC1
→ 102, 99, 131, -20
COc1cc2nc(N3CCN(c4cc(C)ccc4C)CC3)nc(N)c2cc1OC
→ 101, 100, 117, -20
COC(=O)c1ccc(C2NN=C(c3ccccc3)S2)cc1 (configuration not stated)
→ 102, 102, 18, -17
O=C(NCCC1=CCCCC1)c1ccccc1CSc1ncn[nH]1
→ 109, 125, 11, -19
Cc1ccc2n1CCn1cc(-c3ccc(Br)cc3)cc1-2
→ 100, 109, 92, -9
N#CC(C#N)=C(NCc1ccc(Cl)nc1)Nc1ccccc1
→ 104, 109, /, -36

Next records follow:
Below each SMILES – Polio RdRp inh, Polio RdRp inh intensity, Mtb MbtI inh, MenB inh
Cc1cc(OCc2nc(-c3ccncc3)no2)c(C)cc1Br
→ 102, 102, -13, -152
NC(N)=NN=C1CCC(=NN=C(N)N)CC1
→ 98, 102, -7, -30
COC(=O)c1ccc(/C=C2/NC(=O)N(Cc3ccc(Br)cc3)C2=O)cc1
→ 100, 102, -11, -15
COc1ccc(Br)cc1S(=O)(=O)Nc1ccc2cn[nH]c2c1
→ 110, 122, -11, -18
OCCOc1ccccc1OCCO
→ 101, 102, -20, -19
CN1CCCC(OC(=O)c2cc(Br)ccc2Cl)C1 (configuration not stated)
→ 100, 107, -9, /
CCc1ccc(NC(=O)c2cn(CC)c(=O)c3cc(OC)c(OC)cc23)cc1
→ 100, 99, 12, -34
Cc1ccc(CCP(=O)(O)CN2CCCCC2)cn1
→ 104, 105, /, 1
CCN(CC)CCCOc1ccccc1-c1ccccc1
→ 105, 105, -4, -2
C=CCN1C(=O)/C(=C\N(C)C)S/C1=N/S(=O)(=O)c1cccs1
→ 99, 103, -6, 6

(more compounds)
Below each SMILES – Polio RdRp inh, Polio RdRp inh intensity, Mtb MbtI inh, MenB inh
CCc1cc(OC(F)F)ccc1Cl
→ 102, 100, -6, -14
COC(=O)/C(O)=C/c1ccc(Cl)cc1
→ 106, 98, 11, 2
O=C1CCCCCN1Cc1nnc(Sc2ncnc3cc(-c4ccc(Cl)cc4)sc23)o1
→ 114, 112, -5, -1
COC(=O)C1=CN(CCc2ccc(OC)cc2)C=C(C(=O)OC)C1c1ccsc1
→ 106, 101, /, -49
CNC(=O)COC(=O)c1cc(-c2ccc(C)o2)nc2ccccc12
→ 101, 108, -56, -41
O=C(O)C1C2C=CC(C2)C1C(=O)Nc1ccc2ccccc2c1 (configuration not stated)
→ 104, 97, /, -13
O=C(O)CCC12CC3CC(CC(Br)(C3)C1)C2
→ 103, 106, -6, /
CC(C)CN1C(=O)C=CC1=O
→ 107, 104, 81*, -17
COC(=O)c1cc2sc3ccccc3c2s1
→ 102, 104, 2, 1
CC(C)(C)/C(=N/O)c1ccccc1
→ 104, 105, -13, -6

Other compounds follow:
Below each SMILES – Polio RdRp inh, Polio RdRp inh intensity, Mtb MbtI inh, MenB inh
Cc1cccc(CN2CCC(CNC(=O)c3cc4c(=O)[nH]c5ccc(C)cc5c4s3)CC2)c1
→ 104, 106, 29, -14
CC(Cc1ccccc1)N1C(=O)c2ccccc2C1=O (configuration not stated)
→ 100, 98, -3, -37
COc1cccc(C(=O)NCC(=O)N=Nc2c(O)n(Cc3ccc4c(c3)OCO4)c3ccccc23)c1
→ 100, 101, 9, 5
O=C(NC(Nc1cccc2ccccc12)C(=O)c1ccccc1)c1ccco1 (configuration not stated)
→ 107, 110, /, -7
CC(C)(C)N(C(=O)c1cc2ccccc2o1)C(=O)N1CCCCC1
→ /, /, 10, -10
Cc1ccc(Cl)cc1NC(=O)COC(=O)C1CC1
→ 97, 94, -8, /
CC1=CS(=O)(=O)CC1SC(=S)NC(C)C (configuration not stated)
→ 96, 105, 35, 6
COC(=O)/C(C#N)=C/c1ccccc1C
→ 97, 87, -6, -15
O=C(Nc1ccc(Cl)cc1)c1sc2ccccc2c1Cl
→ 102, 98, 10, 1
CCOc1ccc(S(=O)(=O)Nc2cccc(-c3ccc4nncn4n3)c2)cc1
→ 101, 101, 15, 4

Further structures follow:
Below each SMILES – Polio RdRp inh, Polio RdRp inh intensity, Mtb MbtI inh, MenB inh
Cc1c(C(=O)O)cnc2cc(-c3ccccc3)nn12
→ 101, 103, 5, -9
Cc1cc(C)c(CSc2nnc(C)s2)c(C)c1
→ 101, 97, /, -34
CCN1CCC(NCCOC)CC1
→ 99, 102, -7, 3
Oc1nc(-c2ccc(Br)cc2)n2ccncc12
→ 99, 88, 28, -45
CCOC(=O)C(CC)Sc1nnc(-c2ccc(C)cc2)n1C (configuration not stated)
→ 101, 103, -2, 3
CS(=O)(=O)c1ncc(CO)n1Cc1ccccc1
→ 102, 103, -24, -11
COc1ccc(-c2nnc3n(CCc4ccccc4)c(=O)c4ccccc4n23)c(O)c1
→ 100, 101, -5, 10
COc1cc2c(cc1OC)C1=C(C#N)CCC(=NC(=O)c3ccco3)N1CC2
→ 98, 96, 5, 2
Cc1cccc(NC(=O)CN2C(=O)c3ccccc3S2(=O)=O)n1
→ 100, 95, 22, -9
N#CCCSc1ccccc1NC(=O)c1ccc2ncsc2c1
→ 99, 102, 54, -4

Carrying on.
Below each SMILES – Polio RdRp inh, Polio RdRp inh intensity, Mtb MbtI inh, MenB inh
NNC(=O)c1cc(CSc2ccc(Cl)cc2)on1
→ 108, 109, -7, -7
COc1cc(C(=O)Nc2ccc(N3CCOCC3)cc2)cc(CN2C(=O)c3ccccc3C2=O)c1OC
→ 101, 103, -4, -15
CCC(Sc1nnc2sc3ccccc3n12)C(=O)OC (configuration not stated)
→ 99, 106, -2, -15
CCN(CC)c1nc(N)c(C#N)c(C(C#N)Cc2ccccc2)c1C#N (configuration not stated)
→ 99, 103, -3, -15
CC(C)N(Cc1ccccc1)C(=O)Nc1ccc(C(F)(F)F)cc1
→ 100, 108, -6, 6
COc1ccccc1N1CCN(c2ccc3ccccc3n2)CC1
→ 103, 104, -8, /
O=C(CSc1nnnn1C1CCCC1)N(c1ccccc1)C1CCCCC1
→ 101, 107, 1, -14
O=S1(=O)CC(O)C(NC2CCNCC2)C1 (configuration not stated)
→ 103, 102, -17, -8
Cc1ccc(OCc2nc(-c3ccc(C(=O)N4CCc5ccccc54)cc3)oc2C)cc1
→ 102, 102, -26, -3
Cn1c(=O)c2c(nc(Sc3nnc(N)s3)n2C)n(C)c1=O
→ 102, 108, -2, -8

Entries of single compounds, quoted from the list.
`O=S1(=O)CC(O)C(NC2CCNCC2)C1` (configuration not stated) as listed: Polio RdRp inh: 103; Polio RdRp inh intensity: 102; Mtb MbtI inh: -17; MenB inh: -8
`COc1cc(C(=O)Nc2ccc(N3CCOCC3)cc2)cc(CN2C(=O)c3ccccc3C2=O)c1OC` as listed: Polio RdRp inh: 101; Polio RdRp inh intensity: 103; Mtb MbtI inh: -4; MenB inh: -15

The results go on:
Below each SMILES – Polio RdRp inh, Polio RdRp inh intensity, Mtb MbtI inh, MenB inh
CC(c1nnc(-c2ccccc2)o1)N1CCC(c2nc3ccccc3s2)CC1 (configuration not stated)
→ 106, 106, 1, -17
Cn1cc(SCC(=O)NCc2ccc3c(c2)OCO3)c2ccccc21
→ 100, 103, 15, -19
CCOC(=O)c1cccc(Nc2nc(-c3ccccc3)no2)c1
→ 102, 101, 22, -16
O=C(CN(Cc1ccco1)S(=O)(=O)/C=C/c1ccccc1)Nc1ccc2c(c1)OCO2
→ 105, 110, -2, -40
Cc1noc(NS(=O)(=O)c2ccc(N)cc2)c1C
→ 100, 101, -6, 4
CCn1nnc2cc(C(=O)NC(C)c3ccc(Cl)cc3)ccc21 (configuration not stated)
→ 115, 122, -2, -3
CN(C)c1oc(-c2ccccc2F)nc1C#N
→ 101, 102, 116, 14
CCN1CCN(C(=O)c2cc(Cl)nnc2Cl)CC1
→ 103, 99, -1, /
COC(=O)c1cc(-c2cccc(OC)c2)on1
→ 101, 103, 3, -6
Cc1nn(C(=O)c2ccccc2)c2c1C(=O)CC(C)(C)C2
→ 102, 102, -13, 26

(list continues)
Below each SMILES – Polio RdRp inh, Polio RdRp inh intensity, Mtb MbtI inh, MenB inh
C=CC(=O)Nc1sc2c(c1C(=O)OCC)CCCC2
→ 98, 95, 131, /
O=C(OCC(=O)N1CCCc2ccccc21)c1cc(S(=O)(=O)N2CCOCC2)ccc1O
→ 98, 102, -140, -8
Oc1cccc(C(c2ccc3cccnc3c2O)N2CCCC2)c1 (configuration not stated)
→ 111, 95, 91, -42
CCCCOc1ccc(OCCCN2CCOCC2)cc1
→ 103&101, 100&102, -11&-8, -1&2
COc1ccccc1-c1noc(CCC(=O)O)n1
→ 101, 100, -4, -2
CCN(CC1COc2ccccc2O1)C(=O)c1cccc(N(C)C)c1 (configuration not stated)
→ 102, 109, -10, -15
CC(Cc1ccccc1)NC(=O)c1cnc[nH]1 (configuration not stated)
→ 108, 110, /, 9
N#Cc1nnn2c1nc(N)c1c(F)cccc12
→ 100, 96, -104, -25
O=C(N[C@@H]1C[C@H]2CC[C@@H]1C2)c1ccc(CSc2ccccc2)cc1
→ 103, 105, /, -13
Cc1ccccc1Nc1nc(N)nc(Cn2cnc3sc4c(c3c2=O)CCC4)n1
→ 105, 110, 6, -26

Other records follow.
Below each SMILES – Polio RdRp inh, Polio RdRp inh intensity, Mtb MbtI inh, MenB inh
C=CCN(C(=O)c1sc2nc(CSC)[nH]c(=O)c2c1C)c1nc2c(s1)CCCC2
→ /, /, -9, -23
Cc1cccc(C(=O)OC(C)c2nnc(-c3ccccc3)o2)c1O (configuration not stated)
→ 102, 104, 11, -16
CN(Cc1ccccc1)C(=O)C1CCCN1S(=O)(=O)c1ccc(Cl)cc1 (configuration not stated)
→ 102, 100, -6, /
Cc1noc(C)c1CSc1ncccc1C(=O)NC1CCCc2ccccc21 (configuration not stated)
→ 106, 108, 20, -15
Ic1ccc(Nc2nc3nonc3nc2N2CCCCC2)cc1
→ 99, 102, 18, 4
Cc1oc(C(C)(C)C)cc1C(=O)Nc1ccc(C(F)(F)F)c(C#N)c1
→ 100, 103, -30, 1
CCn1c(=O)c2ccccc2n(CC(=O)c2ccc(C)cc2)c1=O
→ 106, 100, -10, -44
COC(=O)c1ccc(OC)c(CN2CCN(Cc3ccc(C)cc3)S2(=O)=O)c1
→ 103, 101, 2, -21
CSc1ccccc1C(=O)OCC(=O)Nc1ccc2[nH]c(=O)[nH]c2c1
→ 102, 105, 0, -18
COC(=O)c1sc2cc(NC(=S)Nc3ccn(C)n3)ccc2c1Cl
→ 102, 97, 7, -25

Remaining list, next part.
Below each SMILES – Polio RdRp inh, Polio RdRp inh intensity, Mtb MbtI inh, MenB inh
Cc1csc(SC(C)C(=O)N2CCCc3ccccc32)n1 (configuration not stated)
→ 102, 104, -3, -4
O=C(OCc1ccccc1Cl)c1cccnc1Cl
→ 100, 93, 0, 2
O=C(O)CC1(CC(=O)N2CCCC2)CCCCC1
→ 107, 105, -14, -11
O=C1CCCC/C1=C/Nc1nc(-c2ccccc2)cs1
→ 108, 108, 3, -31
N#Cc1ccc(NC(=O)[C@@H]2CCCN2C(=O)c2cccs2)cc1
→ 102, 104, -8, 12
O=c1[nH]n(CCO)c(=O)c2ccccc12
→ 104, 105, 6, 15
CC(C)Nc1nccs1
→ 101, 109, -10, -28
COc1ccc(CN2CCNCC2)c(OC)c1OC
→ 102, 100, -6, -8
CC(C)(C)NC(=O)CSc1n[nH]c(-c2cccs2)n1
→ 103, 106, -2, -19
Oc1[nH]c2ccccc2c1C=Nc1ccc2c(c1)CCC2
→ 99, 103, -16, -57

(more compounds)
Below each SMILES – Polio RdRp inh, Polio RdRp inh intensity, Mtb MbtI inh, MenB inh
O=c1c2ccccc2nc(SCc2c(F)cccc2F)n1Cc1ccccc1
→ 106, 106, -4, -11
COc1ccc(OC)c(S(=O)(=O)c2ccc(Br)cc2)c1
→ 102, 109, -27, -12
C[C@H](NC(=O)c1ccc(Br)cc1)C(=O)O
→ 102, 98, 6, -12
Cc1cc(C)cc(N/C(N)=N\c2nc(C)cc(C)n2)c1
→ 101, 103, -2, 9
CC(C)(C)c1ccc(S(=O)(=O)N2CCNC(=O)C2)cc1
→ 105, 108, -3, 3
CCOc1cc(CNC(CC)CO)c(Br)cc1OCC(N)=O (configuration not stated)
→ 101, 103, -13, -6
COc1ccc2c(c1)C(C)CC(C)(C)N2C(=O)Nc1ccc(Cl)cc1 (configuration not stated)
→ 101, 103, -11, 12
O=C(Cn1c(-c2cccs2)cc2ccccc21)NCCc1ccccc1
→ 105, 102, 0, -23
CC(C)CCNc1nccn(-c2ccc(Cl)cc2)c1=O
→ 102, 105, 30, 6
Cc1ccc(NS(=O)(=O)c2ccc(CN3C(=O)c4cccnc4C3=O)s2)nc1
→ 101, 102, i, -4
O=C(Oc1ccc2cc(-c3nc4ccccc4s3)c(=O)oc2c1)c1ccco1
→ 69, 192, -9, -12

Bioassay records from PubChem.
